GCN5L2 inh: blocks human GCN5L2 histone acetyltransferase; AID 504327; GCN5L2 HAT assay, ThioGlo1 CoA-SH fluorescence; Q92830; Potency, µM (highest dose often 58.9 µM), inactives show top-dose activity change, negative = inhibition, actives largely listed as inhibitors; actives 0.21% (n = 390,000); active = well fitted inhibition curve with a large enough effect; inconclusive = small, poorly fitted or top-dose-only effect, or another doubt; inactive = no such curve, though single readings can be large or run the other way
Target sequence (Q92830 whole entry, looked up): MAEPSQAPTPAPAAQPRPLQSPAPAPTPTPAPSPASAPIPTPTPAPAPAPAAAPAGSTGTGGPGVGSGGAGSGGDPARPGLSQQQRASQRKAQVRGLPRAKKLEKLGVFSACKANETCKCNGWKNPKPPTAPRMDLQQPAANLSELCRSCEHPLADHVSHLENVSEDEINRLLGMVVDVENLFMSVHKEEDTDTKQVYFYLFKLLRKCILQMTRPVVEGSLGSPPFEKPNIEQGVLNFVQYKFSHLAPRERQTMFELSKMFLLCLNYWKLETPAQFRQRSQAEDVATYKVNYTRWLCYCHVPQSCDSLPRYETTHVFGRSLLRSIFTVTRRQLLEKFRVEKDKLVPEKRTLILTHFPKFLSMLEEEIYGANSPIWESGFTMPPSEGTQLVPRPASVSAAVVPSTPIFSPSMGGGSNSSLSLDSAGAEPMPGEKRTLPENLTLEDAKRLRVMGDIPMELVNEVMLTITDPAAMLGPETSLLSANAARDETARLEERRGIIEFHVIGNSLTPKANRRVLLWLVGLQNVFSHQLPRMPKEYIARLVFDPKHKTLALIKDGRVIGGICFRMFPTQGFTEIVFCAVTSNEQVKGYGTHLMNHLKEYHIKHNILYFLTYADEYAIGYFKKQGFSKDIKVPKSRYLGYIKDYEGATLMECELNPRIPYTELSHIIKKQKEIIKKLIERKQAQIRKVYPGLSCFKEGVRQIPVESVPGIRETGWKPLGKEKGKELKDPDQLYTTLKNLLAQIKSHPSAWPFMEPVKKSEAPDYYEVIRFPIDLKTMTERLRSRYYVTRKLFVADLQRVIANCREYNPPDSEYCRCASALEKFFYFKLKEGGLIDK
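Preincubate 20nM GCN5L2 with compound 15 min, RT → add 50uM ThioGlo1 + 75uM H3(1-25) + 70uM acetyl-CoA → read fluorescence 0 and 20 min. Primary qHTS; fluorescent artifacts likely.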
* = called active by the depositor; ? = inconclusive; & = joins results of further samples; [ ] = another dose, or the depositor's remark. % is set by controls: 0 for no effect and ±100 for the full control effect; potency is the fitted concentration of half-maximal effect. These rows are one share of the data; most or all hits stand in other tables.

GCN5L2 inh | SMILES
-10% | O=S(=O)(NCC(c1ccc2c(c1)OCO2)N1CCN(c2ccccc2)CC1)c1ccccc1 (stereo unspecified)
-3% | CCOc1ncccc1C(=O)Nc1ccc(F)c(F)c1
-4% | CN1C2=NCCN2C(=O)c2ccccc21
-3% | COc1ccc(OC)c(/C=C2\SC(=S)N(Cc3cccnc3)C2=O)c1
-3% | Cc1ccc(Nc2nc(C(N)=O)c(NC(=O)c3ccccc3Br)s2)cc1
-11% | C/C(=N/NC(=O)CNc1ccc(C)cc1)c1ccc(Cl)cc1
-1% | S=C(NCCc1ccccc1)Nc1ccccc1Cl
1% | CCn1c(=O)cc(OCC(=O)Nc2cc(Cl)c(OC)cc2OC)c2ccccc21
0% | NS(=O)(=O)c1ccc(Nc2nc(-c3ccc(O)cc3)cs2)cc1
-16% | CCCn1c2c(c(=N)c3c1CCC3)CCC2
-9% | CCCCCn1c(Br)nc2c1c(=O)n(CC(N)=O)c(=O)n2C
-7% | COc1ccc(-c2c(C(F)(F)F)nn(C)c2NC(C)=O)cc1

Part of the list above in order of formula weight, smallest number first:
GCN5L2 inh | SMILES
-4% | CN1C2=NCCN2C(=O)c2ccccc21
-1% | S=C(NCCc1ccccc1)Nc1ccccc1Cl
-7% | COc1ccc(-c2c(C(F)(F)F)nn(C)c2NC(C)=O)cc1
-9% | CCCCCn1c(Br)nc2c1c(=O)n(CC(N)=O)c(=O)n2C
1% | CCn1c(=O)cc(OCC(=O)Nc2cc(Cl)c(OC)cc2OC)c2ccccc21
-3% | Cc1ccc(Nc2nc(C(N)=O)c(NC(=O)c3ccccc3Br)s2)cc1
-10% | O=S(=O)(NCC(c1ccc2c(c1)OCO2)N1CCN(c2ccccc2)CC1)c1ccccc1 (stereo unspecified)

(further entries)
GCN5L2 inh | SMILES
? | O=C(N/N=C/c1ccc2cccc(OCc3ccccc3)c2n1)c1ccc(Cl)cc1
-9% | CCCS(=O)(=O)N1CCN(c2ccccc2F)CC1
22% | O=c1c2sc3nc(N4CCOCC4)c4c(c3c2ncn1CCc1ccccc1)CCCC4
0% | Cn1c(-c2ccc(F)cc2)cnc1SCC(=O)NCc1ccco1
3% | Cc1cc(C)c2nc(Cl)c(C3NC(=O)c4ccccc4N3)cc2c1 (stereo unspecified)
-9% | CCOc1ccc(C(=O)N2CC(=O)Nc3ccc(F)cc3C2c2ccc(F)cc2)cc1 (stereo unspecified)
-12% | CCS(=O)(=O)N1CCc2cc(C(=O)Nc3ccc(Br)cc3F)ccc21
-2% | CCN(Cc1ccccc1)S(=O)(=O)c1cc(C(=O)NCC2CCCCC2)ccc1OC
-3% | CCOc1ccccc1N1CCN(Cc2ccc(OC)c(OC)c2)CC1
-8% | O=C(N/N=C/c1ccccc1[N+](=O)[O-])c1cnccn1
-15% | O=C(Nc1cccc2cccnc12)c1ccc2c(c1)OCCO2
-4% | CCOc1ccc(C2C([N+](=O)[O-])=C(C)N(C)C(=O)N2C)cc1OC (stereo unspecified)

Continuation:
GCN5L2 inh | SMILES
-18% | Cc1nn(-c2ccccc2)c2c1cc1c(=O)[nH]c(=O)nc-1n2-c1cccc(C(F)(F)F)c1
-1% | Cc1cc(OCC(=O)O)c2ccccc2n1
0% | O=C(NCc1ccc(Cl)cc1)C(=O)NCC1OCCN1C(=O)c1cccs1 (stereo unspecified)
-18% | Nc1nnn(CC(=O)N/N=C/c2ccccc2)n1
-21% | Cc1ccc(C(=O)Oc2cc(C)n(C)c(=O)c2)cc1
-8% | CC(=O)Nc1cccc(OCC(=O)Nc2ccccc2)c1
-6% | CCCc1cc(=O)[nH]c(SCc2ccc(Cl)cc2)n1
-3% | CCN(CC)S(=O)(=O)c1ccc(OC)c(NC(=O)c2cc(C)on2)c1
? | Brc1ccc(CSc2nnc(-c3cccnc3)o2)cc1
-11% | Cc1ccc(C)c(N2N=C(C(=O)OCC(=O)N(C)c3ccccc3)CCC2=O)c1
-4% | CC(C)Nc1nc(SCC(=O)Nc2ccccc2)nc(N2CCOCC2)n1
-5% | CCN1CCc2c(sc(NC(=O)c3ccc(S(=O)(=O)N(CCOC)CCOC)cc3)c2C(N)=O)C1

Other structures follow.
GCN5L2 inh | SMILES
-9% | O=C(NCC(c1cccs1)N1CCc2ccccc21)c1ccccc1 (stereo unspecified)
3% | O=C(Nc1ccc(-c2csc(Nc3ccc(Cl)cc3)n2)cc1)c1cccc(C(F)(F)F)c1
-2% | COc1ccc(C2Nc3ccccc3C(=O)N2c2ccc(Cl)cc2)cc1Cn1cc([N+](=O)[O-])cn1 (stereo unspecified)
2% | COc1ccccc1-n1c(C)nnc1SCC(N)=O
1% | COc1ccc(NC(=O)c2cccc(Oc3ccccc3)c2)cn1
-8% | O=C(NC1CCCCC1)N(Cc1nc2ccccc2c(=O)[nH]1)C1CCCCC1
-2% | CC(=O)N1CCc2c(sc3c2c(=O)n(-c2ccccc2C)c(=O)n3Cc2cccc(F)c2)C1
-1% | COc1ccccc1-n1cnc2cc(NC(=O)c3ccco3)ccc21
-2% | CC(=O)Nc1ccc(NC(=O)CCC(=O)NCCO)cc1
-8% | Cc1cc(=O)n(CC(=O)NCCC(C)C)c2c1c(C)nn2C
-6% | Cc1ccnc(N2CCC(C(=O)Nc3ccc4c(c3)OCCO4)CC2)n1
2% | O=C(Cc1c(F)cccc1Cl)Nc1ccncc1

Additional structures
GCN5L2 inh | SMILES
-4% | O=C(NC1CC(=O)N(c2cccc(F)c2)C1)C1CCCC1 (stereo unspecified)
7%[21.4 µM] | CC(=O)[C@H]1CC[C@@H]2[C@H]3CC=C4C[C@@H](O)CC[C@]4(C)[C@H]3CC[C@]12C
-1% | CCN(CC(=O)Nc1ccccc1OC)C(=O)CC1CC2CCC1C2 (stereo unspecified)
1% | COc1cccc(CNC(=O)COC(=O)CCc2cc(OC)c(OC)c(OC)c2)c1
25% | NC(=O)CC(NC(=O)Cc1ccc(Br)cc1)c1ccc(NCc2ccc(F)cc2)c([N+](=O)[O-])c1 (stereo unspecified)
1% | COc1cc(OC)c(C(=O)NCc2ccco2)cc1OC
-2% | Cc1cc(-c2ccc(Cl)cc2)oc(=O)c1NC(=O)c1ccccc1
-1% | CC(C)(C)n1nc2c(c1NC(=O)c1cccc(C(F)(F)F)c1)CS(=O)C2 (stereo unspecified)
1% | CN(C)S(=O)(=O)Nc1ccc(Oc2ccccc2)cc1
1% | CCc1ccc(OCC(=O)NC(=S)Nc2ccc(C(=O)O)cc2)cc1
-3% | COc1ccc(S(=O)(=O)NCc2nc(-c3ccccc3)no2)cc1
-4% | CC(C)(C)OC(=O)NCCC(=O)N/N=C/c1cccc2nccnc12

The list goes on; the last three above are carried over.
GCN5L2 inh | SMILES
1% | CCc1ccc(OCC(=O)NC(=S)Nc2ccc(C(=O)O)cc2)cc1
-3% | COc1ccc(S(=O)(=O)NCc2nc(-c3ccccc3)no2)cc1
-4% | CC(C)(C)OC(=O)NCCC(=O)N/N=C/c1cccc2nccnc12
-16%&-27% | COc1ccc2cc(C(C)C(=O)O)ccc2c1 (stereo unspecified)
-3% | CCOC(=O)C(NC(C)=O)(Nc1ccc(S(=O)(=O)Nc2ccncn2)cc1)C(F)(F)F (stereo unspecified)
-8% | Nc1ccccc1Nc1ccccc1
34% | C/C(=N\OC(=O)c1ccc(F)cc1)c1nccs1
-12% | COc1ccc(CCC(=O)N(C)CC(=O)Nc2ccc(Cl)c(C(F)(F)F)c2)cc1
-6% | CC(C)CN1C(=O)c2ccc(NC(=O)c3ccco3)cc2C1=O
-2% | CCCCC(=O)NC1(C(F)(F)F)C(=O)Nc2c1c(=O)[nH]c(=O)n2Cc1ccco1 (stereo unspecified)
-7% | Cc1cc(C)c(NC(=S)N(Cc2cccnc2)Cc2ccco2)c(C)c1
0% | CCn1c(SCC(=O)NNC(=O)c2ccc(OC)cc2)nnc1-c1ccco1
-4% | O=C(O)C1CSC2(CCN(Cc3ccccc3)CC2)N1 (stereo unspecified)
-3% | CC(=O)c1cc2c(cc1NC(=O)CN(C)S(=O)(=O)c1cccs1)OCO2
-2% | Cc1c(C2(O)CCCCC2)[nH]c2ccc(C#N)cc12

Later entries
GCN5L2 inh | SMILES
-2% | CC1C(=O)N2CCCc3cc(S(=O)(=O)Nc4ccccc4F)cc1c32 (stereo unspecified)
-6% | CC1CCCCN1C(=O)COC(=O)c1cc([N+](=O)[O-])ccc1N1CCOCC1 (stereo unspecified)
2% | CC(=O)c1cccc(NC(=O)N2CCCC(C(=O)c3cc(F)ccc3F)C2)c1 (stereo unspecified)
-13% | CCn1cc(C(=O)NCc2ccccc2)c(=O)c2cc(S(=O)(=O)N3CCCCCC3)ccc21
1% | Cc1cccc(C(=O)N(Cc2ccccc2F)C2CCS(=O)(=O)C2)c1 (stereo unspecified)
-7% | c1coc(CNCCCN2CCOCC2)c1
-5% | Cc1ccc(S(=O)(=O)NCC(=O)OCC(=O)N(C)C2CCS(=O)(=O)C2)cc1 (stereo unspecified)
-5% | CCn1c(SCC(=O)Nc2ccccc2-c2ccccc2)nnc1-c1ccoc1C
1% | COc1ccc2c(c1)CCc1c(C(=O)N3CCCC3)noc1-2
-2% | CN(C)S(=O)(=O)N1CCN(C(=O)N(c2ccccc2)c2ccccc2)CC1
4% | O=C(OCCN1CCN(C2=NS(=O)(=O)c3ccccc32)CC1)c1ccccc1F
-25% | CN(C(=O)CSc1nnc(-c2ccncc2)n1-c1ccccc1)C1CCS(=O)(=O)C1 (stereo unspecified)

The results go on.
GCN5L2 inh | SMILES
-11% | CN(CC(=O)Nc1ccc(S(=O)(=O)N(C)C)cc1)Cc1ccc(C(F)(F)F)cc1
-9% | CCOC(=O)c1noc2nc(C)n(Cc3ccc([N+](=O)[O-])cc3)c(=O)c12
3% | COCCCNC(=O)c1c(NC(=O)C2COc3ccccc3O2)sc2c1CCCC2 (stereo unspecified)
-10% | O=C(NCC1CCCCC1)c1cc([N+](=O)[O-])ccc1N1CCOCC1
0% | COCCn1c(C)cc(O)c(C(=O)Nc2cccc(Cl)c2)c1=O
-11% | Nc1ccc2nc(COc3ccccc3)[nH]c2c1
-9% | Cc1ccccc1CSc1nc2c([nH]c3ccccc32)c(=O)n1C
-3% | COc1cc2ccccc2cc1C(=O)Nc1ccc2oc(-c3ccc(Cl)cc3)nc2c1
-8% | CC(C)c1ccc2c(c1)C1Cc3ccccc3C1N2 (stereo unspecified)
-5% | CC1CCN(C(=O)COC(=O)CCCN2C(=O)c3cccc4cccc(c34)C2=O)CC1
2% | COc1cccc(C(=O)c2sc3nc(-c4ccccc4)cc(C(F)(F)F)c3c2N)c1
-4% | O=C(NCCN1CCN(c2ccccc2)CC1)c1ccc2c(c1)[nH]c(=S)n1c3ccccc3nc21

Additional results.
GCN5L2 inh | SMILES
0% | O=C(COC(=O)CN1C(=O)NC2(CCCC2)C1=O)Nc1ccccc1C(F)(F)F
-8% | CN(C)S(=O)(=O)c1cccc(NC(=O)CNCC2CCCCC2)c1
-4% | COc1ccc(C(=O)NC(C)c2nc3ccccc3n2C)cc1OC (stereo unspecified)
-5% | COc1cc(C(=O)N[C@H](C(=O)NC(C)C23CC4CC(CC(C4)C2)C3)C(C)C)cc(OC)c1OC (stereo partly specified)
5% | Cc1ccccc1OCC(=O)NNC(=O)c1ccoc1C
2% | COc1cccc(CNC(=O)CCSCc2ccccc2F)c1
-3% | O=C(CSc1nccn1Cc1ccc(F)cc1)NCc1ccccc1
-5% | CCOC(=O)Nc1nn(-c2ccc(C)cc2)c(=O)c(C#N)c1C
-10% | Cc1ccn2c(=O)nc(SCC(=O)Nc3ccc4c(c3)OCO4)nc2c1
-5% | Cc1ccc(NC(=O)CSc2nc(N)c(-c3ccccc3)c(=O)[nH]2)cc1Cl
-15% | CCO[C@H]1OC(C(=O)NCc2ccccc2)=C[C@@H](c2ccc(C(F)(F)F)cc2)[C@@H]1CCCO
-4% | CCc1ccc(Oc2nc([N+](=O)[O-])nn2C)cc1

Following part.
GCN5L2 inh | SMILES
-11% | CCN1C(=O)c2cccc3c(S(=O)(=O)N4CCNCC4)ccc1c23
-16% | CC1CCN(C(=O)C2CCN(S(=O)(=O)c3cccs3)CC2)CC1
-1% | NC(=O)Cn1cnc2nc3n(c2c1=O)CCC3
-5% | COc1ccc(/C=C2/N=C(c3cccs3)OC2=O)cc1OC(C)C
-10% | COc1ccc(-n2c(SCC(=O)N3CCOCC3)nc3ccccc3c2=O)cc1
-1% | O=C(Nc1nnc(Cc2ccccc2)s1)C1CCC1
-5% | COc1ccccc1CN1CC(C(=O)NCc2c(F)ccc(C)c2F)CCC1=O (stereo unspecified)
1% | O=C(COc1ccc(S(=O)(=O)Nc2ccccc2)cc1)NCc1ccncc1
? | CCOC(=O)c1cc2c(=O)n3ccccc3nc2n(Cc2ccco2)c1=NC(=O)c1ccccc1Br
13% | COc1ccc(C)cc1NC(=O)CN(c1ccccc1F)S(C)(=O)=O
-3% | CC[C@@]1(c2ccccc2OC)ON(c2ccccc2C(F)(F)F)C1=O
-5% | Cc1ccc(-c2nnc(NC(=O)c3ccco3)s2)cc1

Further entries:
GCN5L2 inh | SMILES
-5% | CCOC(=O)c1c(NC(=O)c2nn(CC)cc2Br)c(C#N)nn1-c1ccccc1
-11% | COc1ccc(N(CC(=O)Nc2ccc(C)c(C)c2)S(=O)(=O)c2c(C)noc2C)cc1
-7% | CN1C=CC=C/C1=C1\SC(=S)N(c2ccccc2)C1=O
-4% | O=[N+]([O-])c1ccccc1NCc1ccc(Cl)cc1
-1% | COc1ccc(S(=O)(=O)N(NC2=NS(=O)(=O)c3ccccc32)C(=O)C(C)C)cc1
-10% | COc1ccc(CNC(=O)CSc2nnc3c(n2)[nH]c2ccc(F)cc23)cc1
? | Cc1c(C(=O)N(CCc2ccccc2)Cc2ccccc2)cccc1[N+](=O)[O-]

Some values from the entries so far.
GCN5L2 inh result of COc1ccc(N(CC(=O)Nc2ccc(C)c(C)c2)S(=O)(=O)c2c(C)noc2C)cc1 stands at -11%
GCN5L2 inh result of COc1ccc(CNC(=O)CSc2nnc3c(n2)[nH]c2ccc(F)cc23)cc1 stands at -10%

Screens: PubChem BioAssay, National Center for Advancing Translational Sciences (NCATS)
